Assay outcomes (PubChem)
D2 potentiator = potentiates the human D2 dopamine receptor allosterically; P14416; DiscoveRx D2 beta-arrestin cells, luminescence, 90 min; 100% = 57 uM dopamine signal; potentiation, % (test concentration not listed); 360,000 tested, 0.23% active; active = potentiation of 50% or more; inconclusive = 30% to 50%; inactive = 30% or less;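 further: compound concentration not given in the record; tested on top of an EC20 dose of dopamine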
Target sequence (P14416 whole entry, looked up): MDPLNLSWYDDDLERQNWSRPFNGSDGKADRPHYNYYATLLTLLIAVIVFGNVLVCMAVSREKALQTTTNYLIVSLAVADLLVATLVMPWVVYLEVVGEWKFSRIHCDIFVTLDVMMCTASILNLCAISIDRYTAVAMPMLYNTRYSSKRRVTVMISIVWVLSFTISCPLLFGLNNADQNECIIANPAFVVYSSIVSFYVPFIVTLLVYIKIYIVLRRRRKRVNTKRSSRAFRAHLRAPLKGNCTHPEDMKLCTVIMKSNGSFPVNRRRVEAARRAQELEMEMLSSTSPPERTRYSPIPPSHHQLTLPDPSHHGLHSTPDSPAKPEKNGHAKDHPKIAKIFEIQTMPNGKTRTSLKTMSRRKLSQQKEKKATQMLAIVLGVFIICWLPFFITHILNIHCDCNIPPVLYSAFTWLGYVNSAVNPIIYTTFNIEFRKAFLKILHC
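PathHunter D2 cells, attached overnight at 37 deg C, received compound in DMSO plus dopamine at EC20 (50 nM final) for 90 min at 37 deg C. Beta-arrestin recruitment was read as luminescence after 1 h with detection reagent at ambient temperature.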
TRPV1 potentiator = potentiators of human vanilloid receptor 1 (TRPV1); TRPV1-expressing cells, Fluo-8 calcium influx, capsaicin EC20 potentiation; host cell line not named in the record; control for the full effect not named in the record; potentiation, % at 8.33 µM; 320,000 tested, 0.02% active; active means potentiation above 80%; inconclusive means 30% to 80%; inactive means below 30%; further: 0% is about no effect
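Fluo-8 calcium influx in TRPV1-expressing cells, kinetic read (ex 480/em 520 nm). Compound added and read 3 min for agonist activity, followed by capsaicin at EC20 final and 2 min further read for enhancement.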
ClpP mod = qHTS Assay for Activators of ClpP; purified B. subtilis ClpP, FRET peptide cleavage, 20 min; Potency, µM (titrated, usually from 57.5 µM), for inactives: at the highest dose activity change, negative = active; 340,000 tested, 1.9% active; AID 651965, 2013; active = well fitted falling curve with a large enough effect; inconclusive = small, poorly fitted or top-dose-only effect; inactive = no such curve, though single readings can be large or run the other way; further: potency means the concentration at half of the fitted maximal effect; the source files actives as falling curves though it sought activators and does not explain the sign; nearly all actives have a fitted effect of over 65% in size; many hits overshoot -100%
Target sequence (P80244 whole entry, looked up): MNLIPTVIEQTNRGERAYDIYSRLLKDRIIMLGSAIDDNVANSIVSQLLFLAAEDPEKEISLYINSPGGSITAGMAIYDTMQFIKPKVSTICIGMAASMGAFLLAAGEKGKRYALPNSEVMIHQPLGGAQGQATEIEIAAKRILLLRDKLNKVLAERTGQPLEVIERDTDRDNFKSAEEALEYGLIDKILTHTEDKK
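Buffer: 100 mM Tris/HCl pH8, 100 mM KCl, 0.05% low protease BSA, 2.5% glycerol, 0.01% Tween-20. ClpP 10 microg/mL final; 20 min RT; delta FRET normalized to ADEP and DMSO controls.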
gsp agonist = agonists of gsp mutant (McCune-Albright syndrome). gsp mutant cells, cAMP HTRF, 30 min; control for the full effect not named in the record. Potency, µM (doses to about 76.9 µM), for the others: at the highest dose activation (cAMP increase), most hits filed as activators. 340,000 tested, 0.13% active. AID 624287; active = well fitted activation curve with a large enough effect; inconclusive = small, poorly fitted or top-dose-only effect, or another doubt; inactive = no such curve, though single readings can be large or run the other way; cell line not stated here;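 further: phosphodiesterase inhibitor Ro 20-1724 added with compounds to block cAMP breakdown; potency means the concentration at half of the fitted maximal effect; nearly all actives have a fitted effect of over 60% in size; about a fifth of the inactives were tested at one dose only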
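Cells stably selected in G418 were plated at 2000/well, grown 16-24 hr, then given compounds in DMSO with the PDE inhibitor […] (300 uM solution added) for 30 min at 37C; cAMP was read by HTRF.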
Menin-MLL FL inh = displaces fluorescein MLL peptide from human menin. Fluorescence polarization, fluorescein-MLL peptide displacement from menin. FP activity change, % at 61.4 µM. 290,000 tested, under 10 active; inconclusive = falling polarisation curve, or a change in total fluorescence; inactive = total fluorescence flat and polarisation flat or rising; no compound was filed as active; the % refers to the polarisation; negative = inhibition;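 further: % of control where 0% means no effect; inhibitors lower the polarisation; unlabelled MLL peptide was the positive control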
Sfp PPTase inh = inhibitors of Bacillus subtilis Sfp phosphopantetheinyl transferase; Biochemical Sfp PPTase activity, qHTS; Potency, µM, without a hit: max response, negative = inhibition, most hits filed as inhibitors; 310,000 tested, 3.5% active; active means well fitted inhibition curve with a large enough effect; inconclusive means small, poorly fitted or top-dose-only effect, or another doubt; inactive means no such curve, though single readings can be large or run the other way;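 further: the enzyme is Sfp with the accession as filed and its product quenches rhodamine fluorescence; potency means the concentration at half of the fitted maximal effect; 0% = enzyme reaction without inhibitor and -100% = no enzyme wells; top concentration of the series not given in the record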
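Sfp 15 nM + cpd, 15 min RT; start w/ rhodamine-CoA 5 uM, BHQ-2-YbbR 12.5 uM (final); 50 mM Hepes pH 7.6, 10 mM MgCl2, 0.01% NP-40, 0.01% BSA; read 525/598 nm at 0 and 30 min.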
gsp antagonist = antagonizes gsp, the McCune-Albright syndrome mutation; gsp-mutant cells, cAMP HTRF, 30 min; control for the full effect not named in the record; Potency, µM (titrated, usually from 76.9 µM), for inactives: top-dose activity change, negative = inhibition, most hits filed as inhibitors; 340,000 tested, 0.4% active; AID 624288; active = falling curve of any shape with a large fitted effect; inconclusive = falling curve, mostly with a smaller effect; inactive = flat or rising curve; cell line not stated here;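 further: intracellular cAMP measured with PDE inhibitor Ro 20-1724 present during compound exposure; potency means the concentration at half of the fitted maximal effect; on the % scale 0 is the no-effect control and ±100 the full control effect; nearly all actives have a fitted effect of over 65% in size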
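Cells, 2000/well, grown 16–24 h in DMEM 10% FBS with 0.5 mg/ml G418, then compounds plus […] (300 uM addition stock), 30 min at 37C. cAMP read by HTRF (cAMP-d2 and anti-cAMP antibody-K in lysis buffer) after 30 min RT.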
* hit, by the source's call; ? = inconclusive; / = not tested or not shown; & = joins results of further samples; [ ] = another dose, or the depositor's remark.

SMILES	D2 potentiator	TRPV1 potentiator	ClpP mod	gsp agonist	Menin-MLL FL inh	Sfp PPTase inh	gsp antagonist
CCOC(=O)N1CCN(C(=O)c2cc(S(=O)(=O)N3CCCC3)cn2C)CC1	1	11	1.4%	18%	5.9	9%	3%
CC(C)(C)C(=O)NC1CCN(S(=O)(=O)c2ccccc2F)CC1	-7	2	2.2%	-26%	0.1	14%	9%
CC(C)CN(CC(C)C)C(=O)C12CCC(C)(C(=O)C1)C2(C)C (stereo unspecified)	1	-16	0.1%	-15%	-1.9	25%	-2%
CN1CCN(c2oc(-c3ccco3)nc2S(=O)(=O)c2ccccc2)CC1	-33	-2	-2.7%	17%	0.9	-1%	4%
CCOc1ccc(-c2cccc(NS(=O)(=O)c3cc([N+](=O)[O-])ccc3C)c2)nn1	4	13	-0.6%	3%	/	/	-40%
CC1Cc2ccccc2N1CC(=O)Nc1ccc(Cl)c(S(=O)(=O)N(C)C)c1 (stereo unspecified)	-33	-25	?	-5%[15.4 µM]	-0.4	7%	4%
COC(=O)C1=CN(Cc2ccc(OC)cc2)C=C(C(=O)OC)C1c1ccc(O)c(OC)c1	-3	?	/	-4%	0.1	-3%	2%
COc1ccc(C(=O)CCc2ccccc2O)c(OC)c1	-3	3	/	-57%[inhibitor]	-1.7	16%	9%
Cc1cc(Br)c(NC(=O)CSc2n[nH]c(N)n2)c(Br)c1	-3	/	0.3%	17%	/	/	14%
CC(C)OC(=O)CSc1nnc(-c2ccco2)n1N	9	-2	-2.4%	-35%[inhibitor]	-1.2	8%	9%
CN(C)c1ccnc(N(Cc2ccccc2)Cc2ccccc2)c1C#N	-5	-14	-2.8%	0%	-1.0	-7%	-27%
Cc1ccc(C(=O)NCCN2CCNC2=O)cc1	2	?	/	29%[15.4 µM]	-0.3	13%	12%
Cc1cccc(NS(=O)(=O)c2cc(NC(=O)CC(=O)c3ccc([N+](=O)[O-])cc3)ccc2C)c1	/	4	/	/	2.1	-13%	/
CC1(C)Cc2ccccc2C2=NNC(=O)C2=N1	4	4	/	?	-4.0	23%	5%
COc1cc(CN2CC(C)OC(C)C2)cc(OC)c1 (stereo unspecified)	-10	/	-1.5%	-29%	/	/	-27%
Cc1cc2c(c(SCC(=O)Nc3ccc(C)c(C)c3)n1)C(=O)OC2	-7	2	0.2%	-1%[15.4 µM]	8.3	-8%	10%
O=C(CSc1nnc2c(Cl)cc(C(F)(F)F)cn12)NCc1ccc(F)cc1	-1	-12	-24%	?	/	-14%	13%
COc1ccc(NC(=O)Nc2cccc([N+](=O)[O-])c2)cc1Cl	-7	-7	0.8%	-32%[inhibitor]	0.3	-3%	?
Cn1ccc(NC(=O)c2ccc([N+](=O)[O-])cc2)n1	7	-8	0.9%	-3%	/	/	8%
COc1ccc(C(=O)/C=C/c2ccc(O)cc2)c(O)c1CC=C(C)C	-9	-11	-4.6%	-18%	24	14%	-6%
CC1=C/C(=N\N=C2\NC(=O)C(CC(=O)Nc3ccccc3F)S2)CC(C)(C)C1 (stereo unspecified)	-13	4	/	0%[15.4 µM]	2.0	-11%	2%
CC(C)COC(=O)/C(C#N)=C/c1cn(Cc2ccccc2)c2ccccc12	-6	-7	-5.0%	18%	0.0	3%	-5%
O=C(NNC(=O)C12CC3CC(CC(Cl)(C3)C1)C2)c1ccncc1	-8	5	-2.2%	-15%[15.4 µM]	/	/	11%
O=C(O)CC1(CC(=O)NCc2ccc(C(F)(F)F)cc2)CCCCC1	7	10	/	-33%[inhibitor]	3.3	15%	2%
O=c1[nH]c2c(c3c1CCCC3)CCCC2	-15	5	-0.6%	-20%	3.6	13%	-4%
O=S(=O)(c1ccccc1)N1CCN(S(=O)(=O)c2ccccc2)c2ccccc21	-30	/	1.2%	-42%	/	/	-12%
COc1cc(C(=O)NNC(=O)c2cc(S(=O)(=O)N(C)C)ccc2N2CCCC2)cc(OC)c1OC	-3	1	-1.7%	21%	/	/	1%
O=C(NCCCN1CCOCC1)c1ccc2c(c1)N(Cc1ccccc1F)C(=O)c1ccccc1S2=O (stereo unspecified)	-20	21	-0.1%	-12%	-1.0	9%	5%
Cc1cccc(C)c1N1CC(=O)N(c2c(C)cccc2C)CC1=O	6	-5	-1.1%	-11%	-0.3	17%	2%
CCCOC(=S)NC(=O)c1sc2ccccc2c1Cl	-4	-6	4.3%	?	7.0	28µM*	-10%
CCOC(=O)/C=C/CN(C(=O)OC(C)(C)C)S(=O)(=O)N1CC=CC1	-7	1	0.5%	?	-1.7&2.8	8%&6%	2%
COc1ccc(CCNC(=O)Nc2ccc([N+](=O)[O-])cc2)cc1OC	2	0	/	9%	3.9	-1%	-9%
Nc1nc(SCC(=O)N2N=C3/C(=C\c4ccco4)CCCC3C2c2ccco2)n[nH]1 (stereo unspecified)	1	/	/	29%	/	/	?
Cc1cccc(-n2nc(C)cc2N)c1	-2	-9	-2.9%	-28%	-0.5	11%	-4%
Cc1cc(C)nc(Nc2n[nH]c(-c3cccc4ccccc34)n2)n1	0	11	-17%	-8%	5.7	4%	-8%
COCCN(C(=O)COC(=O)c1sccc1C)c1c(N)n(Cc2ccccc2)c(=O)[nH]c1=O	-4	2	?	?	/	-3%	5%
Cc1nn(-c2ncc(C(F)(F)F)cc2Cl)c(=O)n1-c1ccccc1	-8	0	-3.4%	22%	0.0	15%	7%
CCCNC(=O)CS(=O)(=O)Cc1nc(-c2ccccc2C)oc1C	-3	-17	-1.9%	4%	3.1	22%	2%
O=C(CN1C(=O)c2ccccc2S1(=O)=O)NCc1cccs1	-2	6	-1.0%	-56%[inhibitor]	/	13%	-3%
COc1cc(/C=N/NC(=O)c2cccnc2)ccc1OS(=O)(=O)c1cc(C)ccc1C	17	-1	/	3%	12	-8%	-34%
CC1Cc2cc(S(=O)(=O)NCCC(=O)NCc3ccc(F)cc3)ccc2N1C(=O)C1CC1 (stereo unspecified)	-19	-2	0.5%	-3%	-6.7	19%	-29%
CCOc1ccc(OCC)c(S(=O)(=O)NCc2ccccc2)c1	-4	-33	/	-21%	1.3	2%	-1%
CCCOC(=O)c1ccc(NC(=O)c2c(Cl)ccc(Cl)c2OC)cc1	-21	-15	-5.6%	-53%[inhibitor]	0.9	10%	-26%
COc1cc(NC(=O)COc2cccc3c2OC(C)(C)C3)cc(OC)c1OC	6	5	0.7%	0%	/	/	35µM*
Cc1ccc(C)c(NC(=O)CSc2nnc3n2CCCCC3)c1	-2	-15	0.3%	39%	-2.7	10%	8%
CC(C)N1CC(C(=O)Nc2ccc(Cl)c(Cl)c2)CC1=O (stereo unspecified)	-12	-5	/	-47%[inhibitor]	-1.0	11%	-4%
CC(C)(C)N(Cc1ccccc1)C(=O)CN1C(=O)c2ccccc2S1(=O)=O	-10	/	0.1%	4%[15.4 µM]	/	/	-4%
Cc1ccc(S(=O)(=O)Nc2nc(C)cc(N/N=C/c3ccc(O)cc3)n2)cc1	-4	-3	?	?	4.9	8%	-9%
CC(=O)N(Cc1cccs1)Cc1cc2ccc(C)c(C)c2nc1Cl	2	-3	-4.6%	-79%[inhibitor]	0.3	?	-7%
COc1cc(C2C(C(=O)c3ccc(C)o3)=C(O)C(=O)N2Cc2ccccc2)ccc1O (stereo unspecified)	4	-18	/	-1%[15.4 µM]	/	/	2%
CC(C)[C@H](NC(=O)C1CCN(S(=O)(=O)c2ccc(F)cc2)CC1)C(=O)N1CCCCCC1	-28	-11	-3.4%	?	/	3%	-1%
N#CC1(C#N)COC23CCCCC2C1(C#N)C(=N)O3 (stereo unspecified)	-8	9	?	12%	?	-11%	-7%
CCCc1cc(=O)[nH]c(SCC(=O)N(C)C2CCCCC2)n1	-9	-6	-4.4%	-4%	/	/	-8%
Cc1cc(NC(=O)CSCC(=O)Nc2cc(Cl)ccc2N2CCN(C)CC2)no1	-11	4	-1.6%	-13%	/	/	-4%
COc1ccccc1NC(=O)CSc1nc(O)c(Cc2ccccc2)c(=O)[nH]1	-21	10	0.3%	-50%	-1.3	25%	0%
COc1cccc(OC)c1C(=O)N1CCN(c2ccccn2)CC1	-5	7	-29%	-24%	1.6	-5%	-3%
Cc1ccc(NC(=O)Nc2cccc(C(F)(F)F)c2)nc1	-2	1	/	4%[15.4 µM]	-3.4	24%	13%
Cc1cccc(NC(=O)C2(c3ccc([N+](=O)[O-])cc3)CCCC2)c1	5	-8	-0.4%	-1%	-3.6	-1%	-23%
CC1CCCCN1C(=O)Cn1c(=O)n(CCC(=O)NCc2ccco2)c(=O)c2sccc21 (stereo unspecified)	3	3	0.1%	21%	0.5	17%	-7%
CCC/C(=N\NC(=O)c1ccco1)c1ccc(Cl)s1	-11	-17	-3.6%	-1%	/	5%	2%

Additional entries
SMILES	D2 potentiator	TRPV1 potentiator	ClpP mod	gsp agonist	Menin-MLL FL inh	Sfp PPTase inh	gsp antagonist
CC(C#N)Sc1ncnc2sc(-c3ccccc3)cc12 (stereo unspecified)	-11	-2	/	16%[15.4 µM]	1.1	-8%	-11%
CCOC(=O)c1c(C)oc2ccc(NS(=O)(=O)c3ccc4c5c(cccc35)C(=O)N4)cc12	10	-10	-6.2%	-27%	2.2	-11%	22%
O=C(c1cccc(S(=O)(=O)NCc2ccccc2)c1)N1CCCC1	3	0	/	-17%[15.4 µM]	-0.4	19%	/
Cc1cc(OCCOc2cccc3cccnc23)c(C)cc1Cl	-5	11	?	-8%	-2.4	4%	0%
O=C(c1cccc(Oc2ccc([N+](=O)[O-])cc2Cl)c1)N1CCOCC1	-1	-17	-0.7%	-33%	/	22%	-6%
CS(=O)(=O)Nc1ccc(C2=NN(C(=O)c3ccco3)C(c3ccccc3)C2)cc1 (stereo unspecified)	13	-11	-19%	-53%[inhibitor]	0.9	-2%	-16%
CC(C)CCNC(=O)c1ccc(CS(=O)(=O)Cc2ccccc2F)o1	-5	5	1.9%	-1%	?	11%	5%
CCCOC(=O)NC(CC)COC(=O)Nc1cc(C)ccc1C (stereo unspecified)	-5	4	-0.1%	18%	0.2	17%	3%
